Compound activity from PubChem BioAssay.
CSC inhib = cancer stem cell inhibition; cancer stem cell-like cells viability, luminescence; inhibition, % at 7.5 µM; 300,000 compounds, 1.1% hits;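 active means mean at 75% or more and at least half the replicates too; inconclusive means mean and replicates disagree; tested in HMLE shEcad cells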;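 further: 0% = median of negative and 100% = median of positive control wells; the first replicate is given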
eIF4H FP inh = inhibitors of RNA binding by human eIF4H; inhibition, % at 35 µM; 290,000 compounds, 0.94% hits; Q15056; AID 2012; eIF4H fluorescence polarization binding assay;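 active means 50% or more with normal probe brightness, or confirmed in later tests; inconclusive means above 50% with abnormal brightness, or retests that disagree; inactive means below 50% or failed in later tests; about a fifth of its hits are not listed in these tables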;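 further: calls also rest on retests at 20 µM and on dose response follow-up; 0% = protein and probe with vehicle and 100% = probe without protein; strong numbers were not always called active; many hits fall short of the cut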
HIV Env fusion = HIV envelope-mediated fusion inhibition. HeLa-JRFL Env/CEM21 cell fusion, luciferase. inhibition, % at 12.3 µM. 360,000 compounds, 1.1% hits. AID 651610;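 active means mean replicate inhibition score of at least 50 and every replicate individually at or above 50; inconclusive means only one of the two criteria met; inactive means mean below 50 and not all replicates reaching 50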;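 further: 0% = plate neutral controls and 100% = maraviroc near 300 nM; one replicate is shown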
UUG fidelity = alters start codon recognition fidelity in yeast; S. cerevisiae UUG-firefly luciferase reporter, luminescence/redox ratio; activity score, % at 18.7 µM; 350,000 compounds, 0.13% hits; AID 602363;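 active means replicate mean at a twofold rise or more, about +100% in these data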;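 further: firefly luciferase made from a UUG start codon reports start codon fidelity; reporter light over untreated wells divided by growth signal over untreated wells; some hits fall short of that in this replicate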
Rce1 inhib = yeast Ras-converting enzyme inhibition. Q03530. yeast membranes, quenched prenylated peptide cleavage fluorescence. calls only. 290,000 compounds, 0.27% hits. AID 2563;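 active means fall in fluorescence gain of 50% or more versus controls, with final raw signal at or below 3038400; inconclusive means same 50% fall but final raw signal above 3038400; inactive means fall in fluorescence gain under 50%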;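 further: plate controls were neutral control wells for no effect and wells lacking membranes for full effect; tested at 10 µM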
Target sequence (Q03530 whole entry, looked up): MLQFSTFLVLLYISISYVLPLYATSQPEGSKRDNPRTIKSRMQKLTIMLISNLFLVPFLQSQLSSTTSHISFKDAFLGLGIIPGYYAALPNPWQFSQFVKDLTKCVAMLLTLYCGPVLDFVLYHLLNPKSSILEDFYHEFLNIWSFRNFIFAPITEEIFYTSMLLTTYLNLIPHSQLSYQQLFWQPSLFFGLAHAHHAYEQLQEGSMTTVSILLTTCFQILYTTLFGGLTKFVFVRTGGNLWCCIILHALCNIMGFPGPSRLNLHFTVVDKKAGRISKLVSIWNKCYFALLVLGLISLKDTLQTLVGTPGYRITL
MT1-MMP act inh = blocks activation of human MT1-MMP; 360,000 compounds, 0.061% hits; GFP/RFP ratio change, % at 20 µM; HT1080 RFP-PRO-GFP cells, GFP/RFP ratio fluorescence, overnight; percent of plate control window, DMSO zero;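 active means GFP/RFP ratio change of at least 30% with cell ATP level not reduced by more than half and red fluorescence within 50% of control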; further: strong numbers were not always called active
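Compound: 20 µM single dose, 1% DMSO / System: HT1080 RFP-PRO-GFP cells / Controls: DMSO and RFP-L50D-GFP cell wells / Read-out basis: GFP/RFP fluorescence ratio / Schedule: overnight compound exposure at 37 °C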
PABP FP inh = blocks human PABP binding to poly(A) RNA. P11940. fluorescence polarization. inhibition, % at 35 µM. 290,000 compounds, 1% hits. AID 2014;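 active means 50% or more with normal probe brightness, or confirmed in later tests; inconclusive means above 50% with abnormal brightness, or retests that disagree; inactive means below 50% or failed in later tests; about a fifth of its hits are not listed in these tables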;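 further: calls also rest on retests at 20 µM and on dose response follow-up; controls were probe without protein and protein plus probe with vehicle; some compounds called inactive have numbers as strong as hits; many hits fall short of the cut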
MT1-MMP act inh RFP = further read-out of MT1-MMP act inh, marked with its call; RFP signal change, %; measured here: RFP expression control read;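 0 = vehicle wells; hits needed this value within 50% of zero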
Active calls of the source: *; i = inactive; ? = inconclusive; · = no result given; & = joins results of further samples.

structure,CSC inhib,eIF4H FP inh,HIV Env fusion,UUG fidelity,Rce1 inhib,MT1-MMP act inh,MT1-MMP act inh RFP,PABP FP inh
COc1ccc(-c2nc3c(s2)CCc2onc(-c4ccc(Br)cc4)c2-3)cc1,0,·,-141,-5,i,-6,-7,·
Cc1cccc(C)c1NC(=O)C(C)NCc1cccs1 (stereo unspecified),·,·,26,-4,·,3,9,·
Cc1ccc(OCC(=O)N(Cc2ccco2)C2CCS(=O)(=O)C2)cc1 (stereo unspecified),-13,-16,9,-14,i,5,5,-4
Cc1ccc(NS(=O)(=O)c2cccc(C(=O)NCC3(N(C)C)CCCCC3)c2)cc1,3,-6,13,-2,i,-1,1,-1
CCCNC(=O)Cn1c(=O)/c(=C\c2ccc(-c3cccc([N+](=O)[O-])c3)o2)s/c1=C\C(=O)C(C)(C)C,7,14,-17,·,i,-51,3,-10
CCN(CC)CCN(C(=O)c1ccc(S(=O)(=O)N2CCCC2)cc1)c1nc2cc(C)cc(C)c2s1,9,-2,5,9,i,-5,2,2
CC(=O)c1cn(CC(=O)NCc2ccc3c(c2)OCO3)c2ccccc12,2,-4,?,-10,i,1,-7,6
CCC(=O)Nc1ccc2c(c1)ncn2-c1ccc(C)cc1,-3,0,-20,2,i,2,2,-8
CC1(C(=O)Nc2cnc3ccccc3c2)CCN1C(=O)C/C=C/c1ccccc1 (stereo unspecified),·,·,-23,-6,·,-3,-2,·
CCOc1ccccc1C(=O)N1CCN(c2cccc(Cl)c2)CC1,63,1,-10,15,i,9,-18,9
COc1cc2c(cc1OC)-c1n[nH]c(=S)n1C(C)(C)C2,9,8,-17,-20,i,1,1,0
Cc1ccc(-c2csc3ncnc(-n4nnc5ccccc54)c23)cc1,-29,-13,6,-9,i,-2,-6,2
Cc1ccc(C)c(OCC(=O)Nc2ccc(S(=O)(=O)N3CCN(C)CC3)cc2)c1,-2,4,-20,23,i,6,5,-3
O=C(Cc1cccs1)NCc1cccc(Cl)c1,-3,-6,-92,-11,i,2,3,-1
c1ccc(Cc2ccc(OCCn3cncn3)cc2)cc1,2,-2,14,-19,i,-2,-10,-2
Nc1nnnn1/N=C/c1cc([N+](=O)[O-])ccc1O,-33,-2,5,·,i,-6,2,-6
CC(=O)Nc1ccc2cc3ccc(NC(C)=O)cc3nc2c1,19,77*,-61,25,i,-136,3,70*
COc1cccc(-n2c(Cc3cc(=O)[nH]c(=O)[nH]3)nnc2SCC(=O)N2CCCCCC2)c1,5,2,-18,-11,·,-4,2,-4
Cn1nnnc1-c1cc(Cl)cc(Cl)c1,10,5,-9,·,i,-2,2,10
O=c1[nH]c(C2CCN(S(=O)(=O)c3ccc(F)cc3)CC2)nc2c1nnn2Cc1ccc2c(c1)OCCO2,11,·,-4,-13,i,0,-4,·
COc1cc(C(=O)NC(=S)NC(C)C)cc(OC)c1OC,-4,-7,20,·,i,9,2,6
Cc1ccc(N=C2NC(=O)CS2)cc1C,1,-10,42,-16,i,0,2,-12
CCc1ccc([C@@H]2CC=C(C(=O)O)[C@H](c3ccc(F)cc3)N2S(=O)(=O)c2ccc(C)cc2)cc1,-7,·,-27,-6,·,1,1,·
CCOC(=O)c1c(C)[nH]c(C(=O)Nc2ccc(NC(C)=O)cc2)c1C,·,7,7,·,i,1,3,7
C#CCOCCOCCOCCNc1nc(N2CCN(C(=O)Cn3cc(CCCCN)nn3)CC2)nc(N2CCN(C(=O)[C@H](C)n3cc(CCCN=C(N)N)nn3)CC2)n1,·,43,·,·,i,·,·,9
Cc1ccc2c(c1)N(CC(=O)NCCCN1CCCC1)C(=O)CO2,1,0,5,1,i,2,3,-16
COc1ccc(C2=NS(=O)(=O)N(C)C(C(=O)NC3CCCCC3)=C2)cc1OC,-1,-4,3,-13,i,-5,-8,-5
C=CCOc1ccc(/C=C\c2nc(O)c([N+](=O)[O-])c(=O)[nH]2)cc1OCC,-15,4,-6,-7,i,0,-2,17
Cc1ccc(NC(=O)NC(=O)CSc2n[nH]c(N)n2)c(C)c1,-7,-1,-25,-21,i,-4,-4,-2
CC(=O)N/C(=C\c1ccccc1)C(=O)NCC(=O)O,·,-7,0,·,·,2,2,-10
CC(C)C(C(=O)O)N1CCS(=O)(=O)CC1 (stereo unspecified),-2,4,12,·,i,0,1,-7
O=C(Cn1cnc([N+](=O)[O-])n1)NCc1ccccc1,3,7,·,-11,i,4,8,-5
O=C(c1cnn(-c2ccc(Cl)cc2)c1)c1ccccc1O,10,2,-66,·,i,-2,-3,-5
CC1CC(C)CN(CCCNC(=O)c2ccc(CNS(=O)(=O)c3ccc(F)cc3)cc2)C1 (stereo unspecified),3,8,-3,1,i,4,7,-1
C=CC[C@]12CC=CC(=O)[C@@]1(O)O[C@H](c1ccc(OC)c(OC)c1)[C@H]2C,39,·,·,-6,i,-1,-23,·
CCOC(=O)c1cnc2c(OC)cccc2c1N1CC(C)CC(C)C1 (stereo unspecified),-21,0,6,6,i,-4,-8,4
COc1ccccc1CNC(=O)CCNC(=O)c1ccco1,·,·,-7,-17,·,6,0,·
CCOc1ccc(OCCOC(=O)C2CCN(S(=O)(=O)c3ccc(C)c(C)c3)CC2)cc1,-14,·,1,·,i,2,0,·
CN(CCOc1ccc(Cl)cc1)C(=O)c1ccc(S(=O)(=O)N2CCOCC2)cc1,5,6,8,13,i,3,-1,-3
COc1ccc(CNCc2ccc(OC)c3ccccc23)cc1,9,8,25,-15,i,-2,0,-5
Cc1ccsc1C(=O)N1CCN(c2ncccn2)CC1,-5,·,·,-5,·,3,6,·
Cc1ccccc1C(=O)NNC(=O)C(=O)Nc1cccc(Cl)c1C,-7,-2,-112,-3,i,4,1,-2
O=[N+]([O-])c1ccc(N2CCN(Cc3ccccc3)CC2)s1,-12,23,-4,15,i,30,-5,-5
CCN(CCNC(=O)C1CCN(c2nnc(-n3cccc3)s2)CC1)c1ccccc1,-13,8,11,-13,i,3,2,2
NC(=S)NNc1ccc(Cl)c(Cl)c1,-5,-1,-105,-23,i,2,1,-1
COc1ccc(NC(=O)CNc2ccc(C#N)cc2)cc1,-6,-7,-25,·,·,1,0,-7
CCOC(=O)C1(C)NC(c2ccccc2F)C2C(=O)N(c3cccc(C(C)=O)c3)C(=O)C21 (stereo unspecified),0,5,-63,-1,i,-1,6,6
O=C(CC1C=CCC1)Nc1ccccc1 (stereo unspecified),·,·,-12,-15,·,-1,1,·
C/C(=N\NC(=O)CNC(=O)c1ccccc1F)c1ccco1,-13,11,-1,-7,i,2,5,5
CCOC(=O)C1(Cc2ccc(Cl)cc2)CCN(C(C)Cc2ccc(O)c(OC)c2)CC1 (stereo unspecified),6,4,-7,-2,i,-1,-23,3
CC(C)Sc1nnc(Nc2ccccc2)s1,0,2,·,-19,i,-2,0,-3
O=C(Nc1ccc(N2CCCC2)cc1)c1cc(Br)ccc1Cl,5,-8,5,1,i,-3,-4,5
CCn1c(/C=C/Nc2ccccc2)[n+](CC)c2ccc(C(=O)OCC(F)(F)F)cc21,-8,11,20,-21,i,-3,-2,5
COCCCNc1nc2nonc2nc1N1C[C@H]2CC[C@H]1C2,-12,-6,13,·,i,0,2,-3
COc1cc(/C=N\NC(=O)c2ccc(Cl)cc2)ccc1Oc1ccc([N+](=O)[O-])cn1,-3,·,6,·,i,1,-6,·
Cc1ccc(CN/C=C/C(=O)c2ccc(Br)cc2)cc1,3,4,·,-6,i,5,2,3

(cont.)
structure,CSC inhib,eIF4H FP inh,HIV Env fusion,UUG fidelity,Rce1 inhib,MT1-MMP act inh,MT1-MMP act inh RFP,PABP FP inh
CCCCCC(=O)Nc1ccc(C(=O)COC(=O)CN2C(=O)NC3(CCCC3)C2=O)cc1,-10,·,4,·,i,0,2,·
Cc1ccc(/C=C2\C(=N)N3N=C(CC(=O)N4CCCCC4)SC3=NC2=O)cc1,-1,-1,4,-13,i,-2,5,9
CN(CCC#N)C(=S)Nc1ccc(Oc2ccccc2)cc1,-10,-2,-1,-26,i,1,1,-6
Cc1cc(Br)cn2c(Cc3ccccc3)c(-c3ccccc3)nc12,·,·,6,-26,·,-6,-2,·
O=S(=O)(Nc1cccc2[nH]ncc12)c1cccs1,-1,-1,11,-23,i,5,1,7
O=c1c(N2CCOCC2)nsn1Cc1ccccc1,18,-4,-7,-7,i,-1,2,-4
Clc1ccc(-c2csc(-c3cccnc3)n2)s1,-18,3,-8,-6,i,5,5,1
O=C(NCCOc1ccccc1)c1cncc(Br)c1,-1,-5,·,-5,i,-5,-1,-7
O=C1C2C3C=CC(CC3)C2C(=O)N1/N=C/c1ccco1 (stereo unspecified),-12,0,10,·,i,-7,2,5
O=C1CC(N2CCN(c3ncccn3)CC2)C(=O)N1CCc1ccccc1 (stereo unspecified),-9,-13,11,·,i,-1,1,-2
C[C@@H]1CN([C@H](C)CO)S(=O)(=O)c2ccc(C#CC3CCCCC3)cc2O[C@H]1CN(C)C(=O)Cc1ccncc1,·,·,-3,83&9&-2,·,0,-1,·
COc1ccc(S(=O)(=O)N2CCOCC2)cc1NC(=O)c1ccc(-n2nc(C)cc2C)cc1,-5,3,14,-18,i,1,3,-3
COc1ccc([C@H]2CC(=O)C=C(/C=C/c3ccccc3)C2)cc1,4,·,-112,2,·,4,-2,·
COc1ccc(C(=O)NCc2ccc3c(c2)OCO3)cc1,9,-4,6,1,i,-2,2,0
COc1cccc(NC(=O)CN(C)C(=O)Cn2c(=O)oc3ccccc32)c1,-11,·,-1,-3,i,1,2,·
O=C(Nc1ccc(Cl)cc1)N1CCOCC1,-9,1,-31,-9,i,-1,-2,-1
Cc1onc(-c2ccccc2)c1-c1nnc(-c2ccccc2C(F)(F)F)o1,17,-9,11,-8,i,1,-18,-3
CCCCCCCCCCS(=O)(=O)N/N=C/c1ccc(O)cc1,38,-13,13,·,i,2,6,4
CC(C)(C)C(=O)Cn1nnc(-c2ccc(C(F)(F)F)cc2)n1,2,-3,-13,·,i,1,1,7
Cn1cc(/C=C2\SC(=S)N(NC(=O)c3ccccc3)C2=O)c2ccccc21,7,?,9,-19,i,-21,39,8
Cc1cc2cc(CCNC(=O)c3c(-c4ccccc4Cl)noc3C)c(=O)[nH]c2cc1C,·,3,·,·,i,·,·,-2
Cc1cccc(NC(=O)C2C3CCCCC32)c1 (stereo unspecified),0,0,-41,-21,i,-2,-2,4
COC(=O)C1=C(C)N(Cc2ccc3c(c2)OCO3)C(=O)C1,0,6,11,·,i,-3,2,25
Cc1cccc(NS(=O)(=O)c2ccc(C(=O)NCC(C)(C)N3CCOCC3)cc2)c1C,4,0,·,-13,i,-5,-12,-7
Cc1ccc(C2=NNC(c3ccc(Cl)cc3)=Nc3ccccc32)o1,-11,12,-20,-10,i,6,0,6
Cc1ccc(-c2nn(-c3ccccc3)cc2/C=C/C(=O)OCC(=O)NC2CC2)o1,6,-3,9,·,i,1,0,5
Cc1cc(C)cc(CC(=O)N2CCC2(C)C(=O)NS(=O)(=O)c2ccc(C#N)cc2)c1 (stereo unspecified),·,·,-20,-10,·,-1,0,·
CC1Cc2ccccc2N1C(=O)c1ccc(F)c(S(=O)(=O)N2CCOCC2)c1 (stereo unspecified),-4,·,3,7,·,1,-4,·

These rows are one share of the data (hit frequency here may not be typical).
